High-throughput results deposited in PubChem BioAssay by several laboratories.
PABP FP inh: blocks human PABP binding to poly(A) RNA. P11940. fluorescence polarization. inhibition, % at 35 µM. 290,000 compounds, 1% hits;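 active = 50% or more with normal probe brightness, or confirmed in later tests; inconclusive = above 50% with abnormal brightness, or retests that disagree; inactive = below 50% or failed in later tests; about a fifth of its hits are not listed in these tables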;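 note: calls also rest on retests at 20 µM and on dose response follow-up; controls were probe without protein and protein plus probe with vehicle; some compounds called inactive have numbers as strong as hits; many hits fall short of the cut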
HIV Env fusion: blocks HIV Env-driven cell-cell fusion; HeLa-JRFL Env/CEM21 cell fusion, luciferase; 360,000 compounds, 1.1% hits; inhibition, % at 12.3 µM; AID 651610;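 active = mean replicate inhibition score of at least 50 and every replicate individually at or above 50; inconclusive = only one of the two criteria met; inactive = mean below 50 and not all replicates reaching 50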;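 note: 0% = plate neutral controls and 100% = maraviroc near 300 nM; one replicate is shown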
MT1-MMP act inh: inhibitors of human MT1-MMP activation; GFP/RFP ratio change, % at 20 µM; AID 651647; P50281; HT1080 RFP-PRO-GFP cells, GFP/RFP ratio fluorescence, overnight; percent of plate control window, DMSO zero; 360,000 compounds, 0.061% hits;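 active = GFP/RFP ratio change of at least 30% with cell ATP level not reduced by more than half and red fluorescence within 50% of control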; note: strong numbers were not always called active
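Assay system: RFP-PRO-GFP reporter HT1080 cells; read-out basis: GFP/RFP fluorescence ratio; benchmarks: DMSO wells and RFP-L50D-GFP cells; doses: 20 µM single dose, 1% DMSO; schedule: overnight cell settling, then overnight compound exposure, 37 °C, 5% CO2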
Rce1 inhib: inhibitors of yeast Ras-converting enzyme; calls only; 290,000 compounds, 0.27% hits; yeast membranes, quenched prenylated peptide cleavage fluorescence; AID 2563; Q03530;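 active = fall in fluorescence gain of 50% or more versus controls, with final raw signal at or below 3038400; inconclusive = same 50% fall but final raw signal above 3038400; inactive = fall in fluorescence gain under 50%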;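 note: plate controls were neutral control wells for no effect and wells lacking membranes for full effect; tested at 10 µM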
Target sequence (Q03530 whole entry, looked up): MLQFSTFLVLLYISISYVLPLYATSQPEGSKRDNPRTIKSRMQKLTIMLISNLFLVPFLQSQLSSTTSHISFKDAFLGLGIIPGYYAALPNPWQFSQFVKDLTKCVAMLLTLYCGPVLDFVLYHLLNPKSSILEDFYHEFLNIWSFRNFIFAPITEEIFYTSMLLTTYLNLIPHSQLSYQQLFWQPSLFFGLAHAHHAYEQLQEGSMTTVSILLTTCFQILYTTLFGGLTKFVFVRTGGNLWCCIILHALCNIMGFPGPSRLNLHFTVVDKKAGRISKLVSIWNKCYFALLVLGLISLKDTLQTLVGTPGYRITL
eIF4H FP inh: inhibitors of RNA binding by human eIF4H | Q15056 | eIF4H fluorescence polarization binding assay | inhibition, % at 35 µM | 290,000 compounds, 0.94% hits | AID 2012;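 active = 50% or more with normal probe brightness, or confirmed in later tests; inconclusive = above 50% with abnormal brightness, or retests that disagree; inactive = below 50% or failed in later tests; about a fifth of its hits are not listed in these tables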;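 note: calls also rest on retests at 20 µM and on dose response follow-up; 0% = protein and probe with vehicle and 100% = probe without protein; strong numbers were not always called active; many hits fall short of the cut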
CSC inhib: cancer stem cell inhibition. cancer stem cell-like cells viability, luminescence. inhibition, % at 7.5 µM. 300,000 compounds, 1.1% hits;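 active = mean at 75% or more and at least half the replicates too; inconclusive = mean and replicates disagree; tested in HMLE shEcad cells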;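 note: 0% = median of negative and 100% = median of positive control wells; the first replicate is given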
Yeast UUG start: alters start codon recognition fidelity in yeast; S. cerevisiae UUG-firefly luciferase reporter, luminescence/redox ratio; activity score, % at 18.7 µM; 350,000 compounds, 0.13% hits; AID 602363;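 active = replicate mean at a twofold rise or more, about +100% in these data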;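 note: firefly luciferase made from a UUG start codon reports start codon fidelity; reporter light over untreated wells divided by growth signal over untreated wells; some hits fall short of that in this replicate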
eIF4H FP inh retest: also measured in eIF4H FP inh; calls as there; inhibition, %; compound at 20 µM; confirmation average;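 mean of two retest wells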
PABP FP inh retest: further read-out of PABP FP inh, marked with its call; inhibition, %; compound at 20 µM; confirmation repeats;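 mean of two retest wells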
MT1-MMP act inh RFP: also measured in MT1-MMP act inh; calls as there; RFP signal change, %; measured here: RFP expression control read;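 0 = vehicle wells; hits needed this value within 50% of zero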
* = called active by the depositor; i = inactive; ? = inconclusive; · = no result given; & = joins results of further samples; ! = repeats disagree. Hits appear at their usual frequency. Share with any hit: about 2.9%.

Sample of the layout, four compounds:
SMILES | PABP FP inh | HIV Env fusion | MT1-MMP act inh | MT1-MMP act inh RFP | Rce1 inhib | eIF4H FP inh | CSC inhib | Yeast UUG start | others
COc1cc(OC)cc(-c2cc3ccc(OC)cc3cn2)c1 | · | i | 9.2 | -4.0 | · | · | 93.5* | -10.2
Cc1ccc2sc(N(CCCN(C)C)C(=O)CN3C(=O)c4ccccc4C3=O)nc2c1C | -3.3 | -16.3 | 0.8 | 2.5 | i | -2.6 | -22.6 | -7.1
CCOc1ccc(NC(=S)NC(=O)/C=C/c2ccc(Br)cc2)c([N+](=O)[O-])c1 | -7.0 | -5.8 | · | · | i | 4.8 | 0.4 | -19.7
C=CCSc1nnc2c(n1)OC(C)=Nc1ccc(Br)cc1-2 | 9.2 | 4.1 | -3.9 | 1.0 | i | -4.8 | -0.8 | ·

This part in full (from the top)
SMILES | PABP FP inh | HIV Env fusion | MT1-MMP act inh | MT1-MMP act inh RFP | Rce1 inhib | eIF4H FP inh | CSC inhib | Yeast UUG start | others
COc1cc(OC)cc(-c2cc3ccc(OC)cc3cn2)c1 | · | i | 9.2 | -4.0 | · | · | 93.5* | -10.2
Cc1ccc2sc(N(CCCN(C)C)C(=O)CN3C(=O)c4ccccc4C3=O)nc2c1C | -3.3 | -16.3 | 0.8 | 2.5 | i | -2.6 | -22.6 | -7.1
CCOc1ccc(NC(=S)NC(=O)/C=C/c2ccc(Br)cc2)c([N+](=O)[O-])c1 | -7.0 | -5.8 | · | · | i | 4.8 | 0.4 | -19.7
C=CCSc1nnc2c(n1)OC(C)=Nc1ccc(Br)cc1-2 | 9.2 | 4.1 | -3.9 | 1.0 | i | -4.8 | -0.8 | ·
Cc1ccc(-c2nn(C)c(=O)c3ccccc23)cc1CNC(=O)NC1CCCCC1 | -0.9 | 12.4 | -0.3 | -7.6 | i | 2.5 | -2.3 | ·
Fc1ccc(OCCn2cnc(Cl)c2Cl)cc1 | 18.5 | -6.2 | 1.0 | 1.1 | i | -3.1 | -11.0 | ·
CCCC(=O)Nc1cc2c3c(c1)CCN3C(=O)CC2 | · | -11.8 | 1.6 | 4.3 | i | · | 5.3 | -6.8
CC(Oc1ccc(Br)cc1)C(=O)Nc1ccc(S(=O)(=O)N(C)C2CCN(C)CC2)cc1 (stereo unspecified) | · | -17.5 | -14.3 | -18.7 | i | · | 29.4 | 6.2
Cc1ccc(SC(C)C(=O)NCc2ccncc2)cc1 (stereo unspecified) | -12.4 | 8.0 | -12.7 | -2.6 | i | -13.9 | -7.7 | -16.1
COc1ccc(/C(C)=N/NC(=O)CNC(=O)c2cccs2)cc1 | -2.0 | -3.6 | -6.1 | -4.6 | i | 6.9 | 2.8 | ·
Cc1ccc(S(=O)(=O)N2CCN(c3ncnc4scc(-c5ccccc5)c34)CC2)cc1 | · | · | -6.5 | -10.5 | · | · | 20.7 | -4.1
Fc1ccc(N2CCN(c3nc(CN4CCOCC4)nc4scc(-c5ccccc5)c34)CC2)cc1 | -3.7 | 14.6 | -5.5 | -12.7 | i | -1.2 | -3.7 | ·

Retrieved by compound from the list above (4):
SMILES | PABP FP inh | HIV Env fusion | MT1-MMP act inh | MT1-MMP act inh RFP | Rce1 inhib | eIF4H FP inh | CSC inhib | Yeast UUG start | others
CCOc1ccc(NC(=S)NC(=O)/C=C/c2ccc(Br)cc2)c([N+](=O)[O-])c1 | -7.0 | -5.8 | · | · | i | 4.8 | 0.4 | -19.7
C=CCSc1nnc2c(n1)OC(C)=Nc1ccc(Br)cc1-2 | 9.2 | 4.1 | -3.9 | 1.0 | i | -4.8 | -0.8 | ·
Fc1ccc(OCCn2cnc(Cl)c2Cl)cc1 | 18.5 | -6.2 | 1.0 | 1.1 | i | -3.1 | -11.0 | ·
Cc1ccc(SC(C)C(=O)NCc2ccncc2)cc1 (stereo unspecified) | -12.4 | 8.0 | -12.7 | -2.6 | i | -13.9 | -7.7 | -16.1

Later entries:
SMILES | PABP FP inh | HIV Env fusion | MT1-MMP act inh | MT1-MMP act inh RFP | Rce1 inhib | eIF4H FP inh | CSC inhib | Yeast UUG start | others
COc1ccc(-c2csc(NC(=O)Cc3ccccc3)n2)cc1OC | -7.6 | 8.3 | 2.5 | -15.0 | i | -9.9 | 8.2 | -13.2
O=C(Cc1ccccc1)NCCSCc1ccc(Cl)cc1 | -4.5 | · | 3.6 | 5.4 | i | 1.1 | -13.5 | -0.6
Cc1cc(C(=O)COC(=O)c2cccnc2Cl)c(C)n1-c1c(C)n(C)n(-c2ccccc2)c1=O | 5.8 | 2.7 | 0.9 | 5.7 | · | -4.4 | 4.7 | ·
CCN(CC)CCCN(C(=O)c1ccco1)c1nc(-c2ccc(Cl)cc2)cs1 | 7.0 | -30.0 | -1.2 | -1.5 | i | -0.1 | 7.2 | -0.6
COc1ccc(CN2Cc3cccc4c3[C@@H](CC2=O)[C@H](O)[C@H](O)C4)cc1 | · | -0.3 | -0.2 | 0.8 | · | · | -4.3 | -4.4
CC(Sc1ccc(S(=O)(=O)N2CCN(C)CC2)cn1)C(=O)NC1CCCCC1 (stereo unspecified) | · | -21.1 | 2.0 | -0.3 | · | · | -11.2 | -10.0
CCOC(=O)C(C#N)=CN1CCNc2ccccc21 | · | -94.4 | 5.0 | 8.3 | · | · | · | -11.3
O=C(Nn1cnnc1)c1ccc(F)c(S(=O)(=O)N2CCCCC2)c1 | 16.6 | · | 1.8 | 3.6 | i | 11.2 | -15.8 | -10.3
CCOc1cc(/C=N\NC(=O)c2ccc(NC(=O)C(C)(C)C)cc2)ccc1OC(=O)c1ccc(OC)cc1 | -3.4 | -19.5 | 11.1 | 5.5 | i | -10.0 | -7.3 | -7.6
CC(C(=O)N1CCOCC1)n1cc([N+](=O)[O-])cn1 (stereo unspecified) | 23.4 | -1.3 | 3.0 | 2.0 | i | 23.8 | -1.2 | ·
O=C(c1c[nH]c(C(=O)C(Cl)(Cl)Cl)c1)c1ccc(F)cc1Cl | -4.7 | 4.1 | -0.9 | 0.4 | i | -5.5 | -11.1 | ·
O=C(CCC1CCCN(C(=O)CCN2CCCCC2=O)C1)NCc1ccccc1F (stereo unspecified) | 3.1 | -3.2 | 1.5 | 1.7 | i | -15.1 | 6.9 | -8.0
CCOC(=O)c1c(NC(=O)CN2C(=O)NC(C)(c3ccccc3)C2=O)sc(C)c1C (stereo unspecified) | 7.5 | · | -3.4 | -8.0 | i | 0.3 | 56.4 | -13.6
Cc1ccc(SCc2[nH]nc3c2C(C(C)C)C(C#N)=C(N)O3)cc1 (stereo unspecified) | -8.8 | 7.1 | -7.4 | -5.9 | i | -8.4 | 18.5 | -15.2
Cc1ccc(/C=C2\SC(=S)N(CCC(=O)NNC(=O)c3cccnc3)C2=O)cc1 | 13.2 | 24.7 | -2.6 | -4.0 | i | -3.9 | 8.9 | -20.2
CCCOc1ccc(-c2nc(=S)[nH][nH]2)cc1 | -8.1 | -223.9 | 13.0 | 2.3 | i | 1.5 | 13.9 | -9.9
C[C@@H]1COC(=O)[C@@H](Cc2ccc(F)cc2)C/C=C\C[C@@H](CC(=O)NCCO)C(=O)N1 | · | 4.0 | 1.5 | 2.2 | · | · | 5.0 | 3.3
CCN1CN(Cc2ccccc2)CNC1=S | -3.9 | 2.8 | 4.4 | 8.5 | i | -5.4 | 10.9 | ·
COc1ccnc(Oc2ccccc2)c1C(=O)N/C=N/OCc1ccc(F)cc1Cl | 8.1 | -109.4 | 1.2 | -1.7 | i | 4.7 | 34.0 | 4.2
Cc1ccc(C(=O)Oc2ccc(/C=N/NC(N)=O)cc2)cc1 | -8.4 | 8.5 | 0.4 | 4.0 | i | -2.1 | -4.6 | 0.7
Cc1cc(NC(=O)CSc2cc(Cl)ccc2Cl)n(-c2ccccc2)n1 | 11.0 | 20.7 | -1.0 | 0.8 | i | 2.5 | · | -19.1
Cc1ccc(S(=O)(=O)N2CCC(C(=O)N[C@@H](Cc3ccccc3)C(=O)O)CC2)cc1 | 1.0 | -6.1 | -6.8 | -5.7 | i | 2.1 | -15.3 | -6.2
CCCC(=O)C1=C(SCC)CC(C)(C)C(C(=O)OC)C1=O (stereo unspecified) | 4.2 | · | -2.1 | 2.6 | i | -3.6 | -10.5 | -8.7
Cc1ccc(S(=O)(=O)c2cc3c(=O)n4cccc(C)c4nc3n(C3CCCCC3)c2=N)cc1 | 2.0 | · | 1.0 | -3.5 | i | 0.6 | -4.9 | -10.1
CCNC(=O)OCc1cn(-c2ccccc2)nn1 | 0.0 | ? | -3.9 | -2.0 | i | -7.0 | -9.3 | ·
CCCNC(=O)c1ccccc1NC(=O)c1ccccc1N(C)S(C)(=O)=O | -14.2 | · | 7.1 | 4.7 | i | 0.7 | · | -6.3
Cc1ccccc1-c1nn2c(-c3ccccc3)nnc2s1 | 1.0 | · | 2.0 | -0.8 | i | -6.2 | 5.5 | -16.9
Cc1cc(C)c(C)c(S(=O)(=O)NC2CCN(Cc3ccccc3)CC2)c1C | -12.5 | 6.9 | 2.2 | 2.4 | i | -5.8 | -9.7 | -5.8
C=CCNC(=O)c1cn(CC)c2cc(N3CCN(C(=O)c4ccco4)CC3)c(F)cc2c1=O | -8.8 | 15.2 | -6.2 | -5.7 | i | 13.9 | -8.0 | -4.3
Cc1cccc(-n2c(SCC(=O)Nc3ccc4c(c3)OCO4)nnc2-c2ccoc2C)c1 | -3.6 | -74.4 | -4.9 | -6.1 | i | -5.7 | 5.8 | 0.1
CCC(C(=O)NCc1ccco1)N(C(=O)CNS(=O)(=O)c1ccccc1)C1CCCCC1 (stereo unspecified) | -3.8 | · | -2.7 | 1.5 | i | -6.3 | 3.5 | -12.3
Cc1cccc(N2CCN(C(=O)c3cccc(S(=O)(=O)N4CCc5ccccc5C4)c3)CC2C)c1 (stereo unspecified) | -15.1 | 20.6 | 1.0 | -26.0 | i | -2.1 | -3.3 | -1.9
Cc1ccc(S(=O)(=O)CC(=O)c2ccc([N+](=O)[O-])cc2)cc1 | 0.4 | 1.6 | 2.9 | -0.5 | i | 9.0 | -8.8 | -7.8
CCC1CCCCN1CCCNC(=O)CN1C(=O)c2cccnc2Oc2ccc(Cl)cc21 (stereo unspecified) | -1.2 | 7.0 | -3.2 | 0.3 | i | -2.5 | 21.9 | -15.8
COCCCn1c(C(=O)NC2CCCCC2C)cc2c(=O)n3cccc(C)c3nc21 (stereo unspecified) | -2.2 | -11.8 | 2.7 | -3.3 | i | -11.1 | -10.7 | -19.0
C=CCn1c(SCC(=O)c2cccs2)nnc1-c1cccc(OC)c1 | -0.7 | · | 1.9 | -1.5 | i | -5.5 | · | -16.5
Cc1nnsc1C(=O)N(Cc1ccccc1)C(C)C | 2.9 | -14.9 | -1.6 | -3.1 | i | 4.6 | -4.9 | 7.6
CC(/C=C\c1cccnc1)=C/C(=O)O | 7.7&17.8 | · | -2.1&4.6 | 9.2&12.0 | i | 73.2*! | -1.9&-25.8 | -9.6&-19.8 | eIF4H FP inh retest=80.2*!;PABP FP inh retest=5.0&8.7
CC[C@@H](C)[C@H](NC(=O)CNC(=O)Cc1c(C)c2c(cc(C)c3c(C)coc32)oc1=O)C(=O)O | 11.5 | -7.8 | -4.0 | -3.8 | i | -4.6 | 2.4 | 2.1
COc1cc(OC)cc(C(=O)NCc2ccc3[nH]c(C)cc3c2)c1 | 0.4 | -7.3 | 2.0 | 4.3 | i | 1.8 | 7.2 | ·
